Anthrax LT inh – anthrax lethal toxin internalization inhibition; Cells, anthrax lethal toxin internalization, FRET ratio (460/530); Potency, µM (doses to about 40 µM), inactives show at the highest dose activity change, negative = inhibition, usual class: inhibitors; 0.67% of 70,000 active; AID 912; active = well fitted falling ratio curve with the 530 nm signal flat; inconclusive = other ratio curves, or a change in one channel alone; inactive = flat curves in the ratio and both channels; the % refers to the ratio; further: on the % scale 0 is the no-effect control and ±100 the full control effect; nearly all actives have a fitted effect of over 50% in size; tested in ME-180 cells; beta-lactamase reporter
Prx2 Sm inh – inhibitors of Schistosoma mansoni peroxiredoxin 2 | S. mansoni Prx2 activity coupled to TGR/GSH (TGR is thioredoxin glutathione reductase), NADPH fluorescence loss, qHTS; some inactives read as strong as hits | Potency, µM | 0.07% of 65,000 active; active means full or partial inhibition curve with a strong effect at the top dose; inconclusive means weaker partial or single-point curve; inactive means no accepted curve; further: series up to 57 µM; many of its hits are not listed in these tables
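qHTS, coupled TGR/Prx2 format; 15 min compound preincubation at RT; reaction started with H2O2 (2.5 mM aliquot); kinetic NADPH fluorescence decrease, ex 365/em 450 nm.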
Active calls of the source: *; ? = inconclusive; / = not tested or not shown; & = joins results of further samples; [ ] = remark or other dose. Potency means the concentration at half of the fitted maximal effect. The list is partial; the hit share may differ from the screen's.

Results follow in this order: Prx2 Sm inh | Anthrax LT inh
Cc1csc(NC(=O)C2C3C=CC(O3)C2C(=O)O)n1 (centres undefined)
 : >57 | -9%
O=S(=O)(NCc1cn2ccsc2n1)c1ccc2c(c1)OCCO2
 : >57 | 4%
Cc1csc(SCC(=O)N2CCN(S(=O)(=O)c3ccccc3)CC2)n1
 : >57 | 3%
O=C(Nc1ccc2nsnc2c1)c1cccs1
 : >57 | ?
N#Cc1c(C(F)(F)F)cc(-c2ccco2)nc1SCc1ccccn1
 : >57 | ?
CCOC(=O)c1ccc(NC(=O)CSc2nnc(CNC(=O)c3ccccc3F)o2)cc1
 : >57 | -6%
CCC(C)(C(=O)NC1CCCC1)N(Cc1cccs1)C(=O)Cc1cccs1 (centres undefined)
 : >57 | -1%
CN1CCN(CC(=O)N2c3ccccc3C(=O)Nc3cccnc32)CC1
 : >26&>57&>57 | -13%
N#CCCn1ccc(NC(=O)c2ccc(Cl)cc2)n1
 : >57 | -8%
Cc1sc2nc(SCC(=O)N3CCCC3)[nH]c(=O)c2c1C
 : >57 | 27%
CCOCCO
 : / | -4%
CCCn1c(SCC(=O)NC(C)(C)C)nnc1C(C)C
 : >57 | -9%
CCC(C)C(=O)Nc1nnc(-c2cccs2)s1 (centres undefined)
 : >57 | 11%
CCOC(=O)c1c(NC(=O)OC)sc(C(=O)N(CC)CC)c1C
 : >57 | -11%
CCOC(=O)c1ccc(NC(=O)C(C)NS(=O)(=O)c2ccc(OC)cc2)cc1 (centres undefined)
 : >57 | 7%
Cn1c2ccccc2c2c(C(=O)N3CCN(c4ccccn4)CC3)cn(C3CCCC3)c(=O)c21
 : >57 | ?
COc1ccc(-c2cc3ccccc3n2CC(O)CN2CCN(CCO)CC2)cc1 (centres undefined)
 : / | 1%
COc1cccc(-c2nc(CS(=O)(=O)CC(=O)NCc3ccc(Cl)cc3)c(C)o2)c1
 : >57 | ?
O=C(O)c1csc(Br)c1Br
 : >57 | -1%
Cc1ccc(NC(=O)COC(=O)Cn2c(C)csc2=O)cc1C
 : >57 | -1%
CC(Oc1ccccc1)C(=O)Nc1ccc(S(=O)(=O)NCC2CCCO2)cc1 (centres undefined)
 : >57 | -9%
O=C(NCCC1=CCCCC1)C1CCN(S(=O)(=O)c2cccc3cccnc23)CC1
 : >57 | -13%
COc1cc(S(=O)(=O)N2CCN(C)CC2)ccc1Cl
 : >57 | 7%
CCSc1nnc(NC(=O)c2ccc3c(c2)OCO3)s1
 : >57 | -6%
CC12C=C(/C=C/C=C/c3ccccc3)C(C)(C1)C(/C=C/c1ccccc1)CC2=O (centres undefined)
 : / | -25%[8 µM]
Cc1ccc(/C=C/C2=CC3(C)CC2(C)C(c2ccc(C)cc2)CC3=O)cc1 (centres undefined)
 : / | -10%[8 µM]
Cc1ccc(-n2c(SCC(=O)N3CCOCC3)nnc2-c2cccnc2)cc1
 : >57 | 7%
COc1cc(C2C(C#N)=C(N)Oc3c2oc(CO)cc3=O)ccc1OC(C)C (centres undefined)
 : >57 | 1%
Cc1nn(-c2ccccc2)c(Cl)c1C1C(C#N)=C(N)OC2=C1C(=O)CC(C)(C)C2 (centres undefined)
 : >57 | -23%
COCn1c(-c2ccc(OC)c(OC)c2)nc2ccccc21
 : / | -22%
Cc1cc(NC(=O)COc2nnc(-c3ccccc3)c3ccccc23)no1
 : >57 | -4%
CC(C)Nc1nc2n(c(=O)n1)CCN2C(C)C
 : >57 | 4%
CCOC(=O)c1c(C)c(C(=O)NCc2ccco2)c(C)n1Cc1ccccc1
 : >57 | 3%
COC(=O)c1ccc(CSc2nnc3n(Cc4ccccc4OC)c(=O)c4ccccc4n23)o1
 : >57 | 4%
CC(C)OC(=O)CN1CCN(S(=O)(=O)c2cc(Cl)ccc2Cl)CC1
 : >57 | -13%
OC(CN1CCNCC1)Cn1c2ccc(Br)cc2c2cc(Br)ccc21 (centres undefined)
 : / | ?
CCc1nnc(NC(=O)CSc2nnc3c4ccccc4n(C)c3n2)s1
 : >57 | 4%
Cc1ccc(S(=O)(=O)NC(=O)NN2C[C@H]3CCC[C@@H]3C2)cc1
 : >57 | -1%[3.58 µM]
Cc1ccccc1C(C(=O)NCc1ccco1)N(CC1CCCO1)C(=O)Cn1nnc2ccccc21 (centres undefined)
 : >57 | 2%
Cc1cccc(Nc2nc(NCc3ccco3)nc(N3CCOCC3)n2)c1
 : >57 | -23%
Cc1cc(N=Cc2c(CO)cnc(C)c2O)c(N=Cc2c(CO)cnc(C)c2O)cc1C.[Zn]
 : >57 | -3%[8 µM]
COc1ccccc1N1CCN(C(=O)c2cc(-c3cccc(Cl)c3)on2)CC1
 : >57 | -9%
CCOC(=O)c1sc2ncnc(OC)c2c1C
 : >57 | -15%
Cc1nn(Cc2ccccc2Cl)c(C)c1C(=O)NC1=NCCS1
 : >57 | 2%
CC(=O)N1CCCc2cc(S(=O)(=O)N3CCN(C4CCCCC4)CC3)ccc21
 : >57 | 6%
Cc1ccc(C(C)C)c(OCC(=O)OCc2c(C)noc2C)c1
 : >57 | -21%
CC(C)C(=O)c1cn(Cc2ccccc2C#N)c2ccccc12
 : >57 | -4%
Nc1c(C(=O)NC2CCCC2)sc2nc(-c3cccs3)ccc12
 : >57 | ?
COc1ccc(-c2nn3c(-c4ccccc4)nnc3s2)cc1
 : >57 | /
c1ccc(-n2ncc3c(NCc4cccnc4)ncnc32)cc1
 : / | -23%

(further entries)
Results follow in this order: Prx2 Sm inh | Anthrax LT inh
COCCCN(Cc1ccccn1)S(=O)(=O)Cc1ccccc1
 : >57 | /
Cc1nnc(SCC(=O)NC(C)(C)C)n1CCc1ccccc1
 : >57 | 2%
O=c1cccc2n1CC1CC2CN(Cc2ccc3c(c2)OCO3)C1 (centres undefined)
 : / | 9%
O=C(CN1C(=O)NC2(CCCCC2)C1=O)Nc1ccc(S(=O)(=O)N2CCOCC2)cc1
 : >57 | 1%
COc1ccccc1CCn1c(=O)c(-c2cccc(F)c2)nc2cncnc21
 : >57 | -16%
COC(=O)CNC(=O)C1CCCN1C(=O)OC(C)(C)C (centres undefined)
 : >57 | -6%
Cc1cccn2cc(-c3ccccc3)nc12
 : >57 | 1%
Cc1ccc(C)n1-c1ccc(-c2nnc3n2CCCCC3)s1
 : >57 | -2%
O=C(Nc1ccc(Cl)cc1)c1ccncc1
 : / | -5%
CCCn1c(C)nc2c(NC3CCN(Cc4ccccc4)C3)nc(C)nc21 (centres undefined)
 : / | -11%
OC(Cn1cccn1)c1ccccc1 (centres undefined)
 : >57 | -2%
O=c1c(-c2cccc(F)c2)nc2cncnc2n1C1CC1
 : >57 | ?
O=C(NC1(C(=O)NC2CCCCC2)CCCCC1)c1ccc2c(c1)OCO2
 : >57 | 18%
Oc1c(Br)cc(Br)cc1Br
 : / | -13%
CCOCN(C(=O)Cn1c(CO)nc2ccccc21)c1c(C)cccc1CC
 : >57 | -9%
C=CCN1C(=O)C2(C(C(=O)OCC)=C(N)Oc3ccccc32)c2c1c1ccccc1oc2=O (centres undefined)
 : >57 | ?
Cc1c(CN2CCN(c3cccc(C(F)(F)F)c3)CC2)c(=O)n(-c2ccccc2)n1C
 : >57 | -10%
Cc1nn(-c2cccc(Cl)c2)c2c1C(c1cccnc1)C(C#N)=C(N)O2 (centres undefined)
 : >57 | -7%
CCCCN(CCCNC(=O)c1c(C)cc(=O)oc1C)c1ccccc1
 : >57 | /
CCC12CN3CCN(CC(C3)/C1=N\O)C2
 : >57 | -11%

Six of the compounds above, with bars between the fields:
compound | Prx2 Sm inh | Anthrax LT inh
O=C(NC1(C(=O)NC2CCCCC2)CCCCC1)c1ccc2c(c1)OCO2 | >57 | 18%
Oc1c(Br)cc(Br)cc1Br | / | -13%
CCOCN(C(=O)Cn1c(CO)nc2ccccc21)c1c(C)cccc1CC | >57 | -9%
C=CCN1C(=O)C2(C(C(=O)OCC)=C(N)Oc3ccccc32)c2c1c1ccccc1oc2=O (centres undefined) | >57 | ?
Cc1c(CN2CCN(c3cccc(C(F)(F)F)c3)CC2)c(=O)n(-c2ccccc2)n1C | >57 | -10%
Cc1nn(-c2cccc(Cl)c2)c2c1C(c1cccnc1)C(C#N)=C(N)O2 (centres undefined) | >57 | -7%

Looked up above.
CCOCN(C(=O)Cn1c(CO)nc2ccccc21)c1c(C)cccc1CC @ Anthrax LT inh: -9%
COc1cc(S(=O)(=O)N2CCN(C)CC2)ccc1Cl @ Anthrax LT inh: 7%

The main list resumes with the two entries that preceded the break.
Results follow in this order: Prx2 Sm inh | Anthrax LT inh
CCCCN(CCCNC(=O)c1c(C)cc(=O)oc1C)c1ccccc1
 : >57 | /
CCC12CN3CCN(CC(C3)/C1=N\O)C2
 : >57 | -11%
O=C(c1nc2nc(-c3ccc(Cl)cc3)cc(C(F)(F)F)n2n1)N1CCOCC1
 : >57 | -11%
O=C(CN1CCN(CCC(=O)Nc2ccccc2F)CC1)Nc1ccc(F)cc1
 : >57 | ?
COc1cc(OC)cc(C(=O)N2CCN(C(=O)c3ccc(OC)c(OC)c3)CC2)c1
 : >57 | 23%
Cc1ccccc1N1C(=O)CC(N(O)c2ccccc2)C1=O (centres undefined)
 : >57 | -17%
O=C(CCc1ccccc1)Nc1ccc(NC(=O)c2ccco2)cc1
 : / | -16%
CN1Cc2c(C(=O)OC(C)(C)C)ncn2-c2ccsc2C1=O
 : >57 | -15%
COc1ccc(NC(=O)CN2CCN(CC(=O)Nc3ccc(OC)c(OC)c3)CC2)cc1
 : >57 | -8%
C=C(C)c1cccc(C(C)(C)NC(=O)N2CCN(CC)CC2)c1
 : >57 | 3%
c1ccc(Nc2nc(-c3cccnc3)nc3ccccc23)cc1
 : >57 | -3%
Cc1cc(=O)oc2cc(OC(C)C)ccc12
 : >57 | -17%
c1ccc(CN2CCN(c3ncccn3)CC2)nc1
 : >57 | -6%
COc1ccc2c(C(=O)CN3CCN(CCO)CC3)c[nH]c2c1
 : >57 | -1%
CN1CCN(c2ncc3nc(-c4cccs4)c(=O)n(-c4ccccc4)c3n2)CC1
 : >57 | ?
COc1ccc(NC(=O)CSc2nc(O)cc(=O)n2-c2ccccc2OC)cc1
 : / | ?
CCN1CCCC1CNC(=O)CCc1nc(-c2ccc(C)cc2)no1 (centres undefined)
 : >57 | ?
O=C(COC(=O)CCNS(=O)(=O)c1ccc(Cl)cc1)NCc1ccco1
 : >57 | 2%
CCc1ccc2[nH]c(=O)c(CN(CCO)C(=O)NCc3ccccc3)cc2c1
 : >57 | 7%
COc1ccc(OC)c(S(=O)(=O)N2Cc3ccccc3CC2C(=O)Nc2nccs2)c1 (centres undefined)
 : >57 | -3%
Cc1nc2cc(NC(=O)NCc3ccco3)ccc2n1C
 : >57 | 12%
O=C(CSc1nc(O)cc(=O)[nH]1)N1CCCc2ccccc21
 : >57 | ?
Cn1c(=O)c2c(-c3ccccc3)n(Cc3ccccn3)cc2n(C)c1=O
 : >57 | -1%
CO[C@@H]1COC(=O)C/C=C\[C@H](C)[C@@H](NS(=O)(=O)c2ccc(C)cc2)COC(=O)C/C=C\[C@@H]1C
 : / | -7%&-10%[8 µM]
COc1ccc2oc(-c3ccc(O)cc3)cc(=O)c2c1
 : >57 | ?
COc1ccccc1-c1nnc(SCC(=O)NC2CCCCC2)o1
 : >57 | -20%
CCCCCN=Cc1c(C)[nH]n(-c2nc3ccccc3s2)c1=O
 : >57 | -18%
CCN1CCN(C(=O)CS(=O)(=O)Cc2nc(-c3ccc(C)cc3)oc2C)CC1
 : >57 | -2%
O=C(CCCOc1ccccc1)n1nnc2ccccc21
 : / | -2%
CCOc1ncccc1C(=O)Nc1ccc(-c2cn3ccsc3n2)cc1
 : >57 | ?
O=C1CC(O)(C(F)(F)F)Oc2c1ccc1ccccc21 (centres undefined)
 : / | 10µM*
Cc1noc(C)c1C(=O)N1CCC2(CC1)CCN(c1ncccn1)CC2
 : >57 | ?
Cn1c(NCc2ccccc2O)nc2ccccc21
 : >57 | 2%
COc1ccc(N2C(=O)C(CC(=O)Nc3ccccc3)N(Cc3ccc4c(c3)OCO4)C2=O)cc1 (centres undefined)
 : >57 | -16%
Cc1ccc(NC(=O)CSc2nnc(NC(=O)CN3CCOCC3)s2)cc1
 : >57 | 3%
C[C@@]1(C(NS(=O)(=O)c2cccc3cccnc23)c2ccc(-c3ccccc3)cc2)C[C@H]1C1CCCCC1 (some centres undefined)
 : ? | ?
CCCCOC(=O)Nc1ccc(C(=O)OCCC)cc1
 : / | ?
COc1ccc(C(=O)N2CC3(C)CC2CC(C)(C)C3)cc1 (centres undefined)
 : >57 | -9%
CCC(=O)Nc1ccc(NC(=O)CSc2nnnn2C(C)C)cc1
 : >57 | -9%
CCCn1nnc(NC(=O)c2ccccc2Cl)n1
 : >57 | /
COc1ccccc1N(CC(=O)Nc1ccccc1C(=O)NCC(C)C)S(C)(=O)=O
 : >57 | -1%
O=C(c1ccccc1)N1CCN(C(=O)N2CCOCC2)CC1
 : / | 3%
CCOc1nc(-c2ccccc2)ccc1-c1noc(-c2ccco2)n1
 : >57 | ?
C=CCSc1n[nH]c(-c2ccc(OCCC)cc2)n1
 : >57 | -13%
COc1cc(CCC(=O)OCn2nnc3ccccc3c2=O)cc(OC)c1OC
 : >57 | 8%
COc1ccc(-n2cc(-c3ccccc3)c3c(N4CCN(CCO)CC4)ncnc32)cc1
 : >57 | -5%
